Screens deposited in PubChem by Center for Chemical Genomics, University of Michigan.
TAR Tat displ: HIV-1 TAR-Tat binding disruption. HIV-1 TAR RNA, Tat peptide displacement FRET; hits give high values. z-score (no concentration beside the values). hit rate 0.6% among 100,000. AID 1259389;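 further: score is relative to mean and SD of negative controls; some compounds called inactive have numbers as strong as hits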
CDC25B-CDK2 inh: human CDC25B-CDK2/CyclinA binding inhibition; z-score (no concentration beside the values); AID 1259370; P30305+P24941; hit rate 0.72% among 94,000; HTRF CDC25B-CDK2/CyclinA binding, anti-His/anti-Flag; hits give high values;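 further: score is relative to mean and SD of negative controls; strong numbers were not always called active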
* marks the source's active call; other numbers are inactive results; nt = no result given.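 How the source made its calls: active means z-score from 3 up in half or more of its runs; inactive means the rest.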 The order is random (roughly 0.9% active in at least one column).

SMILES	TAR Tat displ	CDC25B-CDK2 inh
C=CCOc1cccc(C2CC(=O)Nc3c2cnn3-c2nc3ccccc3s2)c1 (configuration not stated)	1.52	nt
O=c1c2ccccc2nc(SCc2cc(F)cc3c2OCOC3)n1-c1ccc2c(c1)OCO2	nt	-1.86
CC(C)(C)NC(=O)CCS(=O)(=O)c1cc2c(cc1Cl)NC(=O)CO2	1.63	nt
CCCCc1c(C)nc(C2CC2)[nH]c1=O	nt	-2.18
O=C1Sc2ccc(S(=O)(=O)Nc3ccc4oc(=O)sc4c3)c3cccc1c23	-3.24	-0.95
CCCc1nn2c(=O)cc(CSCC(=O)Nc3nnc(C(C)C)s3)nc2s1	-1.54	nt
C=CCn1c(=O)c(C(=O)Nc2ccccc2)c(O)c2ccccc21	-0.99	-2.51
COc1ccc(C2C(C#N)=C(N)Oc3n[nH]c(-c4ccc5c(c4)OCO5)c32)cc1OC (configuration not stated)	0.41	-1.38
CCOC(=O)CC(=O)CSc1nc(C)c(C)cc1C#N	2.15	-2.15
COC(=O)c1sc2ccccc2c1OC(=O)c1cccnc1Oc1ccccc1	nt	-0.64
Cc1ccc(Cn2c(C(C)O)nc3ccccc32)cc1 (configuration not stated)	2.03	-1.9
COc1ccc(S(=O)(=O)N2CCC(NC(=O)NC3CCCC3)CC2)cc1	0.56	-0.64
CCOc1c(NC2CCCC2)c(=O)c1=O	2.15	nt
O=C(CCc1nc(-c2ccc(Cl)cc2)no1)NNC(=S)NCC1CCCO1 (configuration not stated)	nt	-2.39
C=CCn1c(Cc2ccccc2)nc2c(cnn2-c2ccccc2)c1=O	1.49	-2.6
CC(=O)N1CCc2cc(C(O)CN(Cc3ccccc3)Cc3ccccc3)ccc21 (configuration not stated)	1.79	-2
COc1cc(OC)cc(-c2nc3n(n2)C(c2ccc(F)cc2)C2=C(CC(C)(C)CC2=O)N3)c1 (configuration not stated)	-0.33	-1.5
Cc1ccc(NC(=O)Nc2c(C)n(C)n(-c3ccccc3)c2=O)cc1C	nt	-2.43
Cc1[nH]c(=O)[nH]c(=O)c1S(=O)(=O)N1CCOc2ccccc2C1	1.34	nt
CCCC(=O)Nc1ccc2c(c1)C(=O)N(C)C1=NCCN12	1.17	nt
CC(=O)Oc1cn(C(C)=O)c2ccccc12	nt	-2.4
Cn1c(=O)n(C)c2cc(CNC3CCCC3)ccc21	0.63	1.2
O=C(Nc1ccc(Cl)cc1)N1CCN(c2nsc3ccccc23)CC1	-1.52	-2.32
Clc1cccc(-c2nnc3sc(-c4ccco4)nn23)c1	1.93	-1.34
COCCCNC(=O)C1=C(C)C(=O)OC12CCCCC2	1.56	0.09
Cc1cc(C)cc(NC(=O)CN2N=NC3C(=O)N(c4ccc(F)c(F)c4)C(=O)C32)c1 (configuration not stated)	0.48	nt
Cc1cc(C)cc(NS(=O)(=O)c2c(C)nc3sc4ccccc4n3c2=O)c1	-0.22	nt
Clc1ccccc1-c1nnc2c3cnn(Cc4ccccc4)c3ncn12	2.47	-1.71
Cc1ccccc1-c1nnc(C2CCN(S(=O)(=O)c3ccc(C(C)(C)C)cc3)CC2)o1	0.84	-0.71
CC1CCCCN1CCNC(=O)Cn1ncc2c(=O)oc3ccccc3c21 (configuration not stated)	-0.36	-1.76
COc1ccc2cc3cc(C(=O)N4CCCCC4)sc3nc2c1	-0.38	-1.06
S=c1[nH]nc(-c2ccncc2)n1Cc1ccccc1	nt	-1.3
CC(C)C(=O)Nc1ccc(-n2cnnn2)cc1	0.53	-0.28
CCC12CN3CC(CC)(CN(C1)C3c1cccc(Br)c1)C2=O (configuration not stated)	nt	-0.38
CCCc1c(C(=O)O)cnn1-c1ccc(Cl)cc1	nt	-1.68
CC(C)c1nnc2sc(COc3ccccc3)nn12	-1.18	-1.35
COC(=O)c1c(-c2cccs2)csc1NC(=O)c1cc(OC)cc(OC)c1	0.86	4.35
Cc1cc(C)cc(Nc2nc3ccccc3n3c(C)nnc23)c1	0.79	-1.27
CC(=O)N1CC(C)Sc2ccc(S(=O)(=O)Nc3cc(C)cc(C)c3)cc21 (configuration not stated)	1.81	nt
Cc1cc(C)c(CN2CCCN(Cc3ccccc3Cl)S2(=O)=O)c(C)c1	0.73	nt
CC(=O)Oc1ccc2nc(-c3ccc4c(c3)C(=O)N(CC(C)C)C4=O)oc(=O)c2c1	nt	0.71
Cc1nc2scc(C)n2c(=O)c1S(=O)(=O)NCCc1ccc(Cl)cc1	0.91	-0.65
CCCOc1ccc(C(C)(O)CN2CCOCC2)cc1 (configuration not stated)	0.46	-0.4
Fc1ccccc1CNCCSc1nnnn1-c1ccccc1	-0.61	-1.64
C(=C\CSc1ccccn1)/CSc1ccccn1	nt	-1.31
Cc1c(S(=O)(=O)c2ccc(Cl)cc2)csc1C(=O)NCc1ccco1	nt	-0.84
CCOC(=O)N1CCC(NC(=O)CNC(=O)c2ccco2)CC1	-0.47	0.28
CCOC(=O)N1CCN(c2c(N3CCc4ccccc4C3)c(=O)c2=O)CC1	-1.5	-1.33
COC(=O)COc1ccc2c(=O)c(Oc3ccccc3Br)c(C(F)(F)F)oc2c1	-1.29	-1.2
Fc1ccc(Oc2ccc3nnc(-c4ccccc4)n3n2)cc1	nt	-1.54
Next section:
SMILES	TAR Tat displ	CDC25B-CDK2 inh
Cc1ccc(S(C)(=O)=NC(=O)NC(=O)c2c(F)cccc2Cl)cc1 (configuration not stated)	nt	0.16
Cc1cc(-n2cnc(SCCOc3ccccc3)n2)nc(N)n1	1.81	0.37
O=C(CN1C(=O)c2cccnc2Sc2ccccc21)NCCc1cccs1	-0.11	nt
O=C(NC1CCC2(CC1)OCCO2)c1cc(S(=O)(=O)N2CCCC2)ccc1F	nt	-1.18
CCn1c(C(=O)N2CCC(C(=O)NCc3ccc(C)cc3)CC2)cc2sccc21	nt	-2.21
CCn1cc(C(=O)O)c(=O)c2cc(S(=O)(=O)N3CC(C)CC(C)C3)ccc21 (configuration not stated)	nt	-3.15
COc1ccc2c3c1OC1CC(O)C=C[C@@]31CCN(C)C2 (some centres not stated)	1.61	nt
C=CCNC(=O)CN1C(=O)CCn2nc(-c3cn(C)c4ccccc34)cc21	-0.48	nt
Cc1ccc(CN2CCc3nc(N4CCN(c5ccccc5)CC4)ncc3C2)s1	0.1	nt
Cc1ccn2c(Nc3ccccc3)c(-c3ccco3)nc2c1	-2.8	0.24
O=S(=O)(NCc1csc2ccc(Cl)cc12)c1cc(S(=O)(=O)c2ccccc2)cs1	nt	0.31
O=C(CSc1nc2ccccc2c(=O)[nH]1)Nc1cc(F)ccc1F	3.22	nt
CCOC(=O)C1=C(C)Nc2nc3ccccc3n2C1c1ccc(N(C)C)cc1 (configuration not stated)	-0.91	-1.51
CC(C)NC(=O)CCc1nc2sc3c(c2c(=O)[nH]1)CCCCC3	1.23	nt
Fc1ccccc1-c1noc(NC2CCN(Cc3ccccc3)CC2)n1	1.3	nt
Clc1ccc(-c2nc3cnccn3c2Nc2ccccc2)cc1	nt	-0.23
COCCNC(=O)N1c2ccccc2NC2=C(C(=O)CC(C)(C)C2)C1c1cccs1 (configuration not stated)	-0.01	nt
C=CCn1c(SCc2ccccn2)nc2c([nH]c3ccccc32)c1=O	0.9	nt
CNc1nc(C(N)=O)c(NC(=O)c2cc(-c3ccc(F)cc3)nc3ccccc23)s1	0.91	nt
CCOC(=O)c1cnn(C)c1N	nt	-0.88
CC(C)C(=O)Nc1c(C(=O)N2CCOCC2)oc2ccccc12	0.02	nt
COc1ccc(-c2noc(C3CCCN(S(=O)(=O)c4ccc(C(C)C)cc4)C3)n2)c(OC)c1 (configuration not stated)	0.96	nt
O=C(Nc1ccc(CCC(=O)N2CCCC2)cc1)c1nc(-n2cnnc2)ccc1Br	1.67	nt
Cc1noc(C(=O)N2CCN(c3ccc(F)cc3)CC2)c1Cl	1.23	1.16
O=C(c1ccc(N2CCCS2(=O)=O)cc1)N1CCN(c2ccc(Cl)cc2)CC1	0.82	nt
Cc1ccccc1CSc1nnc(-c2c[nH]c3ccccc23)n1C	nt	-0.9
COc1cccc(OCCCSc2nc(-c3cccc(F)c3)nc3cc(=O)[nH]n23)c1	0.69	nt
N/C(=N\OC(=O)c1ccc2ncsc2c1)c1ccc(Cl)cc1Cl	nt	-1.33
CC(=O)NC1C(=O)SSC1(C)C (configuration not stated)	nt	-0.63
Cc1noc(C(F)(F)F)c1C(=O)O	nt	-1.09
CCN1CCC2(CC1)OC(=O)C(C)=C2C(=O)NCCCOC	1.07	nt
CCS(=O)(=O)N1CCC(Oc2ccc(-n3cnnn3)cc2)CC1	3.32	-0.73
O=S(=O)(O)C12CC3CC(CC(C3)C1)C2 (tested in a mixture with another compound)	nt	-2.7
O=C1C2ON(c3ccc(Cl)cc3)C(c3cccs3)C2C(=O)N1c1ccc(N2CCOCC2)cc1 (configuration not stated)	-0.1	-1
Cc1cc(C)c(NC2=NS(=O)(=O)c3ccccc32)c(Cl)c1	1	0.07
COc1cc2c(cc1OC)n(CC(=O)NCc1cccs1)n1c(C)cc(=O)nc21	-1.3	-2.55
COCCCNC(=O)Cn1cnc2c1c(=O)n(C)c(=O)n2C	-0.22	-0.84
CC(C)Cc1nn2cc(-c3ccc(Cl)cc3)nc2s1	0.22	-1.53
CCC(=O)N1c2ccccc2CC1C(=O)NCCc1ccco1 (configuration not stated)	1.79	nt
O=S(=O)(Nc1ccc(F)cc1)c1cccs1	0.77	-2.58
Cc1nc2scc(C)n2c(=O)c1S(=O)(=O)NCCc1ccccc1	1.74	-3.1
O=C(CCCn1sc2ccccc2c1=O)Nc1ccccc1F	1.73	0.61
CCCNc1nc(NCc2ccccc2Cl)c2cnn(C)c2n1	0.61	nt
CCOc1ccc(-c2cc(N)n(S(=O)(=O)c3ccccc3)n2)cc1	nt	-0.28
C=CCn1nnc2sc3c(c2c1=O)CCC(C(C)(C)C)C3 (configuration not stated)	2.44	-1.71
Cn1c(SCc2cc(=O)n3[nH]c(-c4ccccc4)nc3n2)nnc1-c1cccs1	1.98	nt
CCc1cc2c(=O)c(-c3ccc4c(c3)OCCO4)c(C)oc2cc1OCC(=O)OC	nt	0.09
CCc1ccc2[nH]c(C)c(CN3CCCC(C)C3)c(=O)c2c1 (configuration not stated)	nt	5.43
CCc1nnc2c(NC(C)c3ccccc3)nc3ccccc3n12 (configuration not stated)	-0.56	nt
Cc1cc2nc(COC(=O)c3cccc(Cl)c3)cc(=O)n2o1	1.56	nt
(next part)
SMILES	TAR Tat displ	CDC25B-CDK2 inh
COCCCNC(=O)N1CC(C)Oc2ccc(Cl)cc21 (configuration not stated)	0.19	nt
O=C(Nc1cccc2cccnc12)c1n[nH]c(=O)c2ccccc12	-2.65	4.47
Cc1c(S(=O)(=O)c2ccc(Cl)cc2)cnc2cc(C3CC3)nn12	nt	-0.74
Cc1ccc(C2CC(=O)Nc3c2cnn3-c2nc3ccccc3s2)cc1 (configuration not stated)	1.82	nt
Cn1c(=O)n(C)c2cc(C(O)COc3ccc(CNC(C)(C)C)cc3)ccc21 (configuration not stated)	-1.42	-0.52
CC1CCc2[nH]nc(C(=O)O)c2C1 (configuration not stated)	1.66	nt
CCOC(=O)c1cc(S(=O)(=O)N(C)CC(=O)NCc2ccc(C)o2)cn1C	0.03	nt
CCCc1c(C)nc(Nc2nc(C)c3cc(C)ccc3n2)[nH]c1=O	nt	-1.4
CCCN1C(=O)C(Cc2nc3ccccc3c(=O)n2CCCO)c2ccccc21 (configuration not stated)	1.76	0.5
COc1ccc(NS(=O)(=O)c2ccc(-c3cc(C)no3)s2)cc1Cl	0.88	nt
O=C(C1COc2cc(S(=O)(=O)NCCC3=CCCCC3)ccc2O1)N1CCCCC1 (configuration not stated)	-0.2	nt
COC(=O)C[C@H]1C(C)(C)C(=O)[C@@H]2CC3=C4CC(OC)O[C@@H](c5ccoc5)[C@]4(C)CCC3[C@@]1(C)C2=O (some centres not stated)	2.4	nt
Nc1c(-c2nc(-c3ccccc3F)no2)nnn1-c1ccc(Br)cc1	0.29	nt
CCOC(=O)N1CCC(Nc2c(N3CCN(c4ccc(C)cc4)C(C)C3)c(=O)c2=O)CC1 (configuration not stated)	1.68	-1.71
CCC1(CC)Cc2ccccc2C(NC(=O)NCC(C)C)=C1C#N	0.9	-2.13
O=C(O)c1ccc2c(c1)C1C=CCC1C(c1ccc(F)cc1)N2 (configuration not stated)	10.4*	0.41
